# High-throughput results from PubChem BioAssay.
# GIV Gai3 FP: inhibitors of GIV peptide binding to Galpha-i3, primary screen, biochemical, fluorescence polarization, FITC-GIV GBA peptide, rat Galphai3 | Guanine nucleotide-binding protein G(i) subunit alpha-3 (Rattus norvegicus), P08753 | 90 min; stronger effect = lower value; scaled: aluminum fluoride 0%, vehicle 100% | percent of control (FP), % (concentration not given with the values) | 210,000 compounds, 0.42% hits | AID 1224905, 2016;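 active means replicate mean at 85% of control or lower, very high polarization wells dropped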;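 further: wells of about 15 µL received 100 nL stock; the first replicate is given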
# Target sequence (P08753 whole entry, looked up): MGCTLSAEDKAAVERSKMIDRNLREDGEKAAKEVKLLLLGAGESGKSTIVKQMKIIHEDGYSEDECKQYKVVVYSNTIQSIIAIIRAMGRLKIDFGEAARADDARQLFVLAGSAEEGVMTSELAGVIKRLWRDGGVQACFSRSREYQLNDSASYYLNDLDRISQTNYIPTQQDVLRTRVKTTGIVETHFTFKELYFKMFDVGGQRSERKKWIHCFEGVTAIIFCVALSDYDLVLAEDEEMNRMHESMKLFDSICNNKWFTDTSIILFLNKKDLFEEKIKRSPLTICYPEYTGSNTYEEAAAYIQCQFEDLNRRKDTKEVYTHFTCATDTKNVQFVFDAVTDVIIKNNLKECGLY
# Sa growth 42C: S. aureus growth inhibition at 42 and 30 °C, primary screen, LtaS inhibitor project, RN4220, two temperatures | OD600, 20 h, 42 °C; stronger effect = lower value | relative growth, % (no concentration beside the values) | 170,000 compounds, 0.53% hits | AID 720641, 2013;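 active means growth at 42 °C up to 50% and 20 or more points under that at 30 °C, or under 10% at both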;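 further: 300 nL library stock went into each well; scaled to the means of positive and negative controls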
# HCMV UL50-53 inh: inhibitors of HCMV UL50-UL53 interaction, biochemical, HTRF; inhibition, % (test concentration not listed); 190,000 compounds, 0.15% hits; HCMV UL50-UL53 nuclear egress complex (human cytomegalovirus); AID 1918969, 2023; normalized percent inhibition;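 active means both replicates at 50% or more, plus weaker picks with an unusually low signal ratio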;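 further: stock transfer was 100 nL into about 20 µL; 0% = negative control wells and 100% = wells with untagged competitor protein; inactives centre near -12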
# Sa growth 42C second temp: further read-out of Sa growth 42C, marked with its call; relative growth, %; measured here: growth at 30 °C;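 optical density after 20 h as mean of two plates; 100% = untreated growth and lower means inhibition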
# * hit, by the source's call; · = no result given; & = joins results of further samples. Not all compounds are listed. The share of hits here may be higher or lower than overall.
SMILES,GIV Gai3 FP,Sa growth 42C,Sa growth 42C second temp,HCMV UL50-53 inh
CSc1nc(OC(=O)N(C)C)cc(-c2ccccc2)n1,99,99,90,3
NC(N)=NOCCC(N)C(=O)O (centres undefined),97,·,·,2
CC1(C)Cc2nc(N3CCCC3)c(C#N)cc2CS1,104,82,78,16
CCC(C)N=Cc1c(O)[nH]c(=S)[nH]c1=O (centres undefined),110,98,112,2
CCOC(=O)C1=C(N)Oc2c(c(=O)oc3ccccc23)C1c1cccc([N+](=O)[O-])c1 (centres undefined),110,·,·,-15
CP(=O)(O)C1=CCNCC1,102,·,·,-17
COc1ccc(-c2nn(CCC#N)cc2C(=O)O)cc1OC,105,98,95,-8
CC(C)NC1CCC(C(C)(C)C)CC1 (centres undefined),·,94,94,0
O=C(CN1CC=C(c2cnn(-c3ccccc3)c2)CC1)N1CCN(c2ccccn2)CC1,111,·,·,1
O=S1(=O)CCN(CCc2c[nH]c3ccccc23)CC1,98,·,·,-17
CCN(CC)CCSc1nc2ccccc2c(=O)n1-c1ccc(Cl)cc1,105,102,95,12
CCOC(=O)C1=CC(=C2C(=O)N(CC)C(=S)N(CC)C2=O)c2ccccc2O1,141,82,66,·
CC1CC(C)CN(c2cnn(C34CC5CC(CC(C5)C3C(=O)O)C4)c(=O)c2Cl)C1 (centres undefined),101,97,97,-26
CN(C)CCOC(=O)C1(C#N)CC2c3ccccc3C1c1ccccc12 (centres undefined),·,107,89,-8
OC1CN2CCC1C(c1ccccc1)C2 (centres undefined),113,·,·,5
COc1ccc(CN2CCN(Cc3ccccc3C)CC2)cc1,104,80,90,·
CN1CCN(c2ccc(N)cc2)CC1,·,98,97,-44
O=C(N1CCC2(CC1)OCCO2)C(F)(F)F,104,101,105,26
CCN(CC)C(=O)c1ccc(NC(=O)Cc2c[nH]c3ccccc23)cc1,·,84,82,-22
CCCn1nc2ccccc2c1P(=O)(N1CCOCC1)N1CCOCC1,·,83,89,-20
CCN1C[C@]2(C)CC[C@H](O)[C@@]34C5C[C@@H]6[C@@H](OC)C[C@@](O)(C5[C@H]6O)[C@@H](CC23)[C@@H]14 (some centres undefined),107,102,96,-26
CCCC(C)N1C(=O)CC(=O)NC1=S (centres undefined),·,97,100,0
Nc1ccc(CCN2CCN(c3cccc(C(F)(F)F)c3)CC2)cc1,97,·,·,3
CCC(C)N1CCN(Cc2cc(OC)c(OC)cc2OC)CC1 (centres undefined),102,83,93,7
COc1ccc(NC(=O)c2cccn(Cc3ccc(Cl)cc3)c2=O)c(OC)c1,99,112,93,·
CN(C)c1ccc(/C=C2/C(=O)C3CCN2CC3)cc1,158,112,95,-52
COC(=O)C1=CO[C@H](C)[C@@H]2CN3CCC4(C(=O)Nc5ccccc54)C3C[C@H]12 (some centres undefined),·,102,94,-13
CN1CCN(c2ncc(C#N)c(N)n2)CC1,105,118,94,49
CCN1CCN(c2nc3ccccc3s2)CC1,·,73,93,-1
CCN(CC)P(=S)(N(CC)CC)N(CC)CC,100,107,89,-4
O=c1c2ccccc2nc(CN2CCOCC2)n1-c1ccccc1F,103,109,75,-6
O=C1NC(=O)C2C3C=CC(O3)C12 (centres undefined),105,25,21,-13
CC(Cc1cccs1)NCc1ccccc1 (centres undefined),·,90,81,-23
O=C1C2CN3CN(C2)CC1(c1ccccc1)C3,102,100,77,3
O=c1c2ccccc2nc(/C=C/c2ccccc2)n1-c1ccccc1F,111,109,101,·
CCN(CC)CC#N,·,77,94,-7
O=C(c1ccc2c(c1)N(Cc1ccccc1)CCS2)N1CCC2(CC1)OCCO2,98,133,80,·
CCN1CCN(Cc2ccc(N)cc2)CC1,·,147,99,-1
O=C(COc1ccc2ccccc2c1)N1CCN(Cc2ccncc2)CC1,105,102,103,-4
NC(=O)Cn1cc(C(=O)c2ccccc2)c2ccccc21,·,93,80,-4
CC1C(c2cccs2)=[N+]([O-])C(C)(C(=O)c2ccc(F)cc2)N1O (centres undefined),99,92,97,-32
CN1C(=O)NC(=O)/C(=C\C=C\c2ccco2)C1=O,95,117,93,·
COc1cc2c(c(OC)c1OC)CC(N)CCC2 (centres undefined),·,82,88,4
Oc1cc2c(cc1CN1CC=C(c3ccccc3)CC1)OCO2,·,85,67,-8
COc1ccc(CC(=O)Nc2ccc3c(C(F)(F)F)cc(=O)oc3c2)cc1OC,98,92,75,·
CCOc1ccc2nc(NC(=O)c3cccn(Cc4ccc(C)cc4)c3=O)sc2c1,100,114,98,·
c1ccc2c(CCNC3=NCCC3)c[nH]c2c1,·,112,89,-5
Cc1ccc(OCC(=O)N2CCN(CCc3ccncc3)CC2)cc1C,98,99,93,4
COc1cccc(CNCCc2c[nH]c3ccccc23)c1,107,100,87,·
Cc1cc(/C=C2\C(=O)NC(=O)N(c3ccccc3F)C2=O)c(C)n1-c1cc(C(=O)O)cc(C(=O)O)c1,104,·,·,2
CC[C@@H](CO)NC(=O)[C@@H]1C=C2c3cccc4[nH]cc(c34)C[C@H]2N(C)C1,98,91,90,-18&-37&-38&-20
O=c1c2ccccc2[se]n1-c1ccccc1,·,0.3*,0.8*,6&6&-5&10&6
CC1CCC(NCC(O)c2ccccc2)CC1 (centres undefined),·,86,99,-6
CN1CCN(C(=O)COc2ccccc2O)CC1,·,117,97,-12
C[N+]1(CCC(C(N)=O)(c2ccccc2)c2ccccc2)CCCCC1,·,94,91,-63
O=c1cccc2n1CC1CC2CN(C(=S)NC2Cc3ccccc3C2)C1 (centres undefined),102,93,81,-22
O=C(COc1ccccc1)N1CCN(Cc2ccccn2)CC1,·,118,83,-2
CCOC(=O)c1[nH]c(C)c(C=C(C#N)C#N)c1C,99,91,84,-16
NCCc1ccc(F)cc1,·,99,100,-36
COc1ccccc1CN1CCN(Cc2ccc(F)cc2)CC1,105,·,·,-2

# Compound profiles, as listed above:
# O=C(COc1ccccc1)N1CCN(Cc2ccccn2)CC1 in the list: GIV Gai3 FP = ·; Sa growth 42C = 118; Sa growth 42C second temp = 83; HCMV UL50-53 inh = -2
# CC1CCC(NCC(O)c2ccccc2)CC1 (centres undefined) in the list: GIV Gai3 FP = ·; Sa growth 42C = 86; Sa growth 42C second temp = 99; HCMV UL50-53 inh = -6
# CN1CCN(C(=O)COc2ccccc2O)CC1 in the list: GIV Gai3 FP = ·; Sa growth 42C = 117; Sa growth 42C second temp = 97; HCMV UL50-53 inh = -12

# A draw from above in order of number of heavy atoms, smallest number first.
SMILES,GIV Gai3 FP,Sa growth 42C,Sa growth 42C second temp,HCMV UL50-53 inh
NCCc1ccc(F)cc1,·,99,100,-36
CN1C(=O)NC(=O)/C(=C\C=C\c2ccco2)C1=O,95,117,93,·
COc1cccc(CNCCc2c[nH]c3ccccc23)c1,107,100,87,·
CC[C@@H](CO)NC(=O)[C@@H]1C=C2c3cccc4[nH]cc(c34)C[C@H]2N(C)C1,98,91,90,-18&-37&-38&-20
CCOc1ccc2nc(NC(=O)c3cccn(Cc4ccc(C)cc4)c3=O)sc2c1,100,114,98,·

# (list continues)
SMILES,GIV Gai3 FP,Sa growth 42C,Sa growth 42C second temp,HCMV UL50-53 inh
O=C1c2ccccc2C(=O)N1c1ccc2c(C(F)(F)F)cc(=O)oc2c1,99,102,96,-24
CNCC(C)c1ccccc1 (centres undefined),106,98,82,1
C=CCOC(=O)c1cc(-c2ccc(C=C3C(=O)NC(=S)NC3=O)o2)ccc1Cl,111,·,·,-11
c1ccc(CN2CCN(c3ccccc3)CC2)cc1,100,104,84,12
CSc1ncc(/C=C2/C(=O)NC(=O)N(C3CCCCC3)C2=O)cn1,115,103,99,0
COc1ccc(S(=O)(=O)NC(CC(=O)N2CCC3(CC2)OCCO3)c2ccco2)cc1 (centres undefined),102,98,87,·
O=C(c1ccc2c(c1)N(Cc1ccc(F)cc1)CCS2)N1CCC2(CC1)OCCO2,105,113,86,6
NC(C(=O)O)c1cc(=O)[nH]o1 (centres undefined),95,·,·,6&-2
CN(CC(=O)c1ccccc1Br)C1CCCCC1,·,103,90,-18
CC1(C)CCC(C)(C)c2cc(-c3csc(CC#N)n3)ccc21,126,120,90,-22
Cc1ccc(C)c(NC(=O)Cn2cc(C(=O)c3ccccc3)c3ccccc32)c1,95,·,·,-26
COc1ccc2c(c1OC)CN1CCc3cc4c(cc3C1C2)OCO4 (centres undefined),·,96,90,-9&-22
NCCc1ccc2c(c1)OCO2,·,100,100,-11
COc1ccc(C2N3CCCN23)cc1OC (centres undefined),97,·,·,-9
O=C(c1cccs1)c1cn(Cc2ccccc2Cl)c2ccccc12,106,118,103,16
O=c1c2ccccc2[nH]c(=S)n1-c1ncn[nH]1,·,101,86,-29
CCCNC(=O)Cn1cnc2sc(C(=O)N3CCC4(CC3)OCCO4)c(C)c2c1=O,105,102,96,-4
Nc1c(C(=O)OC2CCCCC2)c2nc3ccccc3nc2n1Cc1ccco1,109,114,92,-10
Cc1ccc2c(c1)-c1cc(C)nn1C(c1cccnc1)N2 (centres undefined),98,120,77,·
CC(C)(C)P(=O)(N1CCOCC1)N1CCOCC1,·,79,89,-29

# A second format for part of the listing above:
structure | GIV Gai3 FP | Sa growth 42C | Sa growth 42C second temp | HCMV UL50-53 inh
CC1CC(C)CN(c2cnn(C34CC5CC(CC(C5)C3C(=O)O)C4)c(=O)c2Cl)C1 (centres undefined) | 101 | 97 | 97 | -26
CN(C)CCOC(=O)C1(C#N)CC2c3ccccc3C1c1ccccc12 (centres undefined) | · | 107 | 89 | -8

# New compounds follow.
SMILES,GIV Gai3 FP,Sa growth 42C,Sa growth 42C second temp,HCMV UL50-53 inh
CC(C)(C)OC(=O)C1=C(N)OC2=C(C(=O)CCC2)C12C(=O)Nc1ccc(Br)cc12 (centres undefined),104,·,·,-19
CN1CCN(c2ncnc3nc[nH]c23)CC1,105,92,79,-36
CC1=C(C(=O)OC(C)C)C2(C(=O)Nc3ccccc32)C(C(=O)OCc2ccccc2)=C(N)O1 (centres undefined),101,·,·,-17
COc1ccccc1N1CCN(Cc2cnc(-c3ccccc3)[nH]2)CC1,99,93,84,-13
OCCN1CCN(Cc2ccccc2)CC1,102,107,59,-6
COc1cccc(NC(=O)c2cccn(Cc3ccccc3C)c2=O)c1,101,79,90,·
C#CCSc1nc2ccccc2c(=O)n1-c1ccccc1,103,97,105,11
O=c1c2ccccc2nc(C(F)(F)F)n1-c1ccccc1,·,118,62,-2
C1=C(c2ccccc2)CCN(Cc2nnc(-c3ccc4c(c3)OCO4)o2)C1,103,106,93,-2
FC(F)=C(F)CCSc1ncn[nH]1,99,·,·,-20
Cc1cc(Cl)nc(N)n1,·,81,89,-18
O=C(Nc1ccc(Br)cc1C(=O)c1ccccc1)c1cc2cc([N+](=O)[O-])ccc2s1,107,·,·,16
C1CCc2nnc(CCN3CCOCC3)n2CC1,·,86,98,10
CCC1(CC)C(=O)NC(=S)N(C)C1=O,104,83,96,-12
O=c1cccc2n1CC1CC2CN(Cc2nnc(-c3cccc(Cl)c3)o2)C1 (centres undefined),100,·,·,-30
O=C(c1ccccc1)N1CC2CC(C1)c1cccc(=O)n1C2 (centres undefined),·,87,82,-5
CCCC(=O)c1cc(F)c(N2CCN(C)CC2)cc1C,·,121,92,0
N=c1sccn1Cc1ccccc1,·,93,86,-11
Nc1ccc(Cl)c(C(F)(F)F)c1,101,93,95,-7
O=C(Nc1ccc2c(c1)OCCO2)N1Cc2ccccc2-n2cccc2C1c1ccc(Cl)cc1 (centres undefined),99,·,·,-20

# Shown with values under each structure: 2 of the compounds above
# Sequence of screens – GIV Gai3 FP | Sa growth 42C | Sa growth 42C second temp | HCMV UL50-53 inh
Nc1ccc(Cl)c(C(F)(F)F)c1
 : 101 | 93 | 95 | -7
O=c1c2ccccc2nc(C(F)(F)F)n1-c1ccccc1
 : · | 118 | 62 | -2

# Additional results:
SMILES,GIV Gai3 FP,Sa growth 42C,Sa growth 42C second temp,HCMV UL50-53 inh
CCN1CCN(Cc2csc(C)c2C)CC1,101,84,90,·
CC12NC(Cc3ccccc31)c1ccccc12 (centres undefined),95,91,88,-33&-5
CCOC(=O)C1=C(N)Oc2c(c(C)nn2-c2ccccc2)C12C(=O)N(C)c1ccccc12 (centres undefined),102,109,100,2
CC1=CC(=O)C2=C(C)C[C@H](O)[C@@H]3[C@H](OC(=O)[C@@H]3C)[C@@H]12,106,92,90,-10
CCC(=O)N1N=C2C3CCN(CC3)C2C1c1ccccc1 (centres undefined),99,97,87,-15
COc1cccc(CN2CCN(Cc3ccc(F)cc3)CC2)c1,100,·,·,-7
Cc1ccc(CNC(=O)CCCn2c(=O)c3sccc3n(CC(=O)Nc3c(C)cccc3C)c2=O)cc1,108,103,91,-16
CN(C)CC(O)c1ccc2cc[nH]c2c1 (centres undefined),103,84,87,·
CC(C)n1cc(C(=O)O)cn1,102,88,88,·
NCCc1nnc2ccccn12,·,92,96,1
CCOc1ccc2nc(NC(=O)c3cccn(Cc4ccccc4Cl)c3=O)sc2c1,103,130,85,·
CC(N)Cn1cccn1 (centres undefined),105,97,86,-17
Cc1ccc2c(c1)C1CN(C)CCC1N2C(=O)c1cccs1 (centres undefined),·,129,97,-10
CCN(CC)c1ccc(CN(C)CCc2ccc(OC)c(OC)c2)cc1,108,93,103,-21
